High-throughput results (PubChem)
Vaccinia pol inh: blocks vaccinia virus processive DNA synthesis; in vitro processive DNA synthesis, absorbance read-out; active compounds read low; some inactives read as strong as hits; normalized absorbance, % (test concentration not listed); 46,000 tested, 0.94% active; AID 493162;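 active means replicate mean up to 90% and picked by the depositor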;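 further: 100% = median of the test wells of a plate; 100 nL library stock went into each well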
* = called active by the depositor.

COc1ccc(CC(=O)N2CCC(c3ccccc3)C2)cc1 (centres undefined) was read as Vaccinia pol inh 100.8.
`O=C(CC(NCc1ccccc1)c1ccccc1O)NCc1ccccc1` (centres undefined) gave Vaccinia pol inh 103.6.
`Cn1c(=O)cc(Nc2ccc(F)c(Cl)c2)c2ccccc21` gave Vaccinia pol inh 104.8.
CCOc1cccc2sc(NC(=O)CC)nc12 was read as Vaccinia pol inh 87.3*.
COc1ccccc1C(CC(=O)NC1CCOC(C)(C)C1)c1ccc(OC(C)C)cc1 (centres undefined) was read as Vaccinia pol inh 99.8.
CCC(C)NC(=O)c1csc2c1CCCC2 (centres undefined) was read as Vaccinia pol inh 103.1.
For COC(=O)C(C(C)C)N1C(=O)C2C3C=CC(C3)C2C1=O (centres undefined) the results were Vaccinia pol inh 101.3.
Screening COc1ccc(/C=C/C(=O)Nc2ccc(N3CCOCC3)c(Cl)c2)cc1 returned Vaccinia pol inh 99.9.
Screening CCOc1ccccc1C(=O)NCCn1ccc2ccccc21 returned Vaccinia pol inh 98.7.
`O=C(O)Cc1cn(-c2ncc(C(F)(F)F)cc2Cl)c2ccccc12` gave Vaccinia pol inh 96.0.
NC(=O)c1c(C(F)(F)F)cc(-c2ccccc2)nc1NCCO was read as Vaccinia pol inh 99.7.
CCN1C(=O)c2cccc3c(S(=O)(=O)N4CCN(C)CC4)ccc1c23 was read as Vaccinia pol inh 99.1.
For NC(=O)/C(=C/c1ccc2c(c1)OCO2)NC(=O)c1ccc(Br)cc1 the results were Vaccinia pol inh 99.9.
Screening NCC(c1ccccc1)N1CCOCC1 (centres undefined) returned Vaccinia pol inh 93.4.
For Nc1nc(-c2cccs2)c(CC(=O)O)s1 the results were Vaccinia pol inh 99.2.
Screening OCc1ccccc1O[C@@H]1O[C@H](CO)[C@@H](O)[C@H](O)[C@H]1O returned Vaccinia pol inh 99.0.
OC1CCCCC1N1CCC(c2ccccc2)CC1 (centres undefined) was read as Vaccinia pol inh 99.8.
For CCCC(C(=O)O)c1ccccc1 (centres undefined) the results were Vaccinia pol inh 91.5.
`CC1CCc2c(cc(-c3ccccc3)n2-c2ccc(C(=O)NCCN3CCN(C)CC3)cc2)C1` (centres undefined) gave Vaccinia pol inh 100.2.
For CCn1nnc(NC(=O)c2sc3ccccc3c2Cl)n1 the results were Vaccinia pol inh 85.4.
NC(=O)c1ccsc1NC(=O)c1cc(=O)c2ccccc2o1 was read as Vaccinia pol inh 101.1.
`CN(C)c1ccc(/C=C/C#N)cc1` gave Vaccinia pol inh 96.8.
`Cc1nc2ccccc2n1CCOc1ccccc1` gave Vaccinia pol inh 90.8.
`COc1cccc(NC(=O)Cn2ncc3c4ccccc4n(C)c3c2=O)c1` gave Vaccinia pol inh 96.0.
CCN1CCN(c2ccc(NC(=O)/C=C/c3ccccc3)cc2)CC1 was read as Vaccinia pol inh 99.6.
`CCC(=O)NC(Nc1sc2c(c1C(=O)OC)CCC2)(C(F)(F)F)C(F)(F)F` gave Vaccinia pol inh 101.3.
For Cc1ccc(-n2ncc3c(NCCO)ncnc32)c(C)c1 the results were Vaccinia pol inh 98.5.
Screening O=C(CNC(=O)c1ccc(Br)cc1)NC1=NCCS1 returned Vaccinia pol inh 98.9.
For COc1ccc(-n2cc3ccsc3c2)c(OC)c1 the results were Vaccinia pol inh 90.8.
Screening C=CS(=O)(=O)c1cccc(Br)c1 returned Vaccinia pol inh 98.0.
`Cc1cc(C)n(CNc2c(C)n(C)n(-c3ccccc3)c2=O)n1` gave Vaccinia pol inh 100.1.
CC(C)C(NC(=O)c1ccc(CN2CCN(c3ccccc3)CC2)cc1)C(C)C was read as Vaccinia pol inh 100.9.
For CCOC(=O)c1oc2ccccc2c1N the results were Vaccinia pol inh 73.8.
Screening CCOC(=O)CSc1n[nH]c(=S)s1 returned Vaccinia pol inh 101.9.
Screening O=C(NCCNc1ncc(C(F)(F)F)cc1Cl)C(F)(F)Sc1ccccc1 returned Vaccinia pol inh 90.7.
`COc1ccc(C2CC(C)=NN2C=O)cc1OC` (centres undefined) gave Vaccinia pol inh 100.2.
Screening Cc1cccc(C(C)C)c1NC(=O)COC(=O)c1ccccc1N returned Vaccinia pol inh 108.0.
CC1=CC(C)C(CN2CCOC2C(C)C)C(C)C1 (centres undefined) was read as Vaccinia pol inh 92.3.
`CCn1cc(CN(C(=O)Nc2cccc(OC)c2)C2CCCCC2)c2ccccc21` gave Vaccinia pol inh 101.6.
`Cc1cc(N2CC(C)CC(C)C2)nc2ccc(NC(=O)CCC(=O)Nc3ccc(F)cc3Cl)cc12` (centres undefined) gave Vaccinia pol inh 101.0.
`NNC(=O)CS(=O)(=O)Cc1ccc(-c2csnn2)cc1` gave Vaccinia pol inh 93.9.
Screening CC1(C)CC(=O)C2=C(C1)OC(N)=C(C#N)C21C(=O)N(CO)c2ccccc21 (centres undefined) returned Vaccinia pol inh 99.8.
CC1(C)CC2(CCCN(CCC(O)(c3ccccc3)c3ccccc3)C2)CCO1 (centres undefined) was read as Vaccinia pol inh 100.2.
O=C(CSC1CCCCC1)c1ccc(Br)cc1 was read as Vaccinia pol inh 99.2.
For CCOc1ccc(S(=O)(=O)n2ccc(C)n2)c2ccccc12 the results were Vaccinia pol inh 107.1.
`NC(=O)c1oc2ccccc2c1NC(=O)C1CC1` gave Vaccinia pol inh 100.9.
For Cc1c(-c2ccnn2S(C)(=O)=O)sc2ccc(Cl)cc12 the results were Vaccinia pol inh 92.4.
Screening Cc1ccc(C(=O)O)c(C(=O)Nc2nccs2)c1 returned Vaccinia pol inh 100.9.
O=C(O)CCNc1ccccc1C(=O)O was read as Vaccinia pol inh 100.2.
Cc1cc2[nH]c(=O)c(=O)[nH]c2cc1S(=O)(=O)N1CCc2ccccc2C1 was read as Vaccinia pol inh 100.3.
FC(F)(F)c1cc(Oc2ccc(Cl)cc2)c2cc(Cl)ccc2n1 was read as Vaccinia pol inh 85.3.
Cc1c(C)n(CC(O)CN2CCCCC2C)c2ccccc12 (centres undefined) was read as Vaccinia pol inh 103.3.
`COC(=O)c1cc(S(=O)(=O)Nc2ccc(OC)cc2)c[nH]1` gave Vaccinia pol inh 95.6.
Screening Cc1ccc(C(=O)NCCc2ccccc2)cc1 returned Vaccinia pol inh 106.6.
CC1=C(C(=O)Nc2ccccc2C)C(c2ccco2)C(C#N)=C(SCC(=O)c2ccccc2)N1 (centres undefined) was read as Vaccinia pol inh 92.0.
Screening O=C(CN1C(=O)/C(=C/c2cccc(Br)c2)SC1=S)Nc1ccccc1C(F)(F)F returned Vaccinia pol inh 98.7.
`c1ccc(NC2=NCCCS2)cc1` gave Vaccinia pol inh 88.4.
Screening CCOc1cc(-c2nc(-c3cc4cc(C)ccc4nc3OC)no2)cc(OCC)c1OCC returned Vaccinia pol inh 86.6.
Screening O=C1NCC(O)=C1C=Nc1ccccc1O returned Vaccinia pol inh 99.8.
Screening O=C(c1cccc(COc2ccccc2Cl)c1)N1CCCCC1 returned Vaccinia pol inh 100.5.
Oc1cccc(-c2nc3ccccc3[nH]2)c1 was read as Vaccinia pol inh 99.5.
Screening Cc1cccc(OC(=O)Nc2ccccc2)c1 returned Vaccinia pol inh 103.6.
CCc1cccc(OCC(=O)O)c1 was read as Vaccinia pol inh 85.0.
COC(=O)c1ccc(-c2nc(-c3cc(C)nc4ccccc34)no2)cc1 was read as Vaccinia pol inh 91.5.
Screening CN1C(=O)/C(=C\c2ccccc2C(F)(F)F)SC1=S returned Vaccinia pol inh 100.8.
Screening NC(Cc1ccccc1)c1ccc2c(c1)OCCO2 (centres undefined) returned Vaccinia pol inh 104.2.
For O=S(=O)(Nc1ccc(-c2nc3cccnc3s2)cc1)c1ccccc1 the results were Vaccinia pol inh 95.9.
For CCOC(=O)c1[nH]c2ccc(OC)cc2c1C(SCC(=O)O)c1ccc(C(F)(F)F)cc1 (centres undefined) the results were Vaccinia pol inh 78.9.
`COc1ccc(O)c(C=NCC(C)N=Cc2cc(OC)ccc2O)c1` (centres undefined) gave Vaccinia pol inh 99.5.
For O=c1c(-c2nc3ccccc3s2)coc2cc(O)ccc12 the results were Vaccinia pol inh 101.1.
O=C1Cc2ccccc2C(=O)N1c1ccccc1 was read as Vaccinia pol inh 93.6.
For O=S(=O)(c1ccccc1)c1nc(-c2ccco2)oc1N1CCCCC1 the results were Vaccinia pol inh 103.7.

Reprinted at random: 5 entries already listed.
For O=S(=O)(Nc1ccc(-c2nc3cccnc3s2)cc1)c1ccccc1 the results were Vaccinia pol inh 95.9.
COC(=O)c1ccc(-c2nc(-c3cc(C)nc4ccccc34)no2)cc1 was read as Vaccinia pol inh 91.5.
For O=c1c(-c2nc3ccccc3s2)coc2cc(O)ccc12 the results were Vaccinia pol inh 101.1.
Screening NC(Cc1ccccc1)c1ccc2c(c1)OCCO2 (centres undefined) returned Vaccinia pol inh 104.2.
Oc1cccc(-c2nc3ccccc3[nH]2)c1 was read as Vaccinia pol inh 99.5.

Structures listed so far that have a thiophene ring, fused or not (7):
CCC(C)NC(=O)c1csc2c1CCCC2 (centres undefined) was read as Vaccinia pol inh 103.1.
For Nc1nc(-c2cccs2)c(CC(=O)O)s1 the results were Vaccinia pol inh 99.2.
For CCn1nnc(NC(=O)c2sc3ccccc3c2Cl)n1 the results were Vaccinia pol inh 85.4.
NC(=O)c1ccsc1NC(=O)c1cc(=O)c2ccccc2o1 was read as Vaccinia pol inh 101.1.
`CCC(=O)NC(Nc1sc2c(c1C(=O)OC)CCC2)(C(F)(F)F)C(F)(F)F` gave Vaccinia pol inh 101.3.
For COc1ccc(-n2cc3ccsc3c2)c(OC)c1 the results were Vaccinia pol inh 90.8.
For Cc1c(-c2ccnn2S(C)(=O)=O)sc2ccc(Cl)cc12 the results were Vaccinia pol inh 92.4.

Continuation.
`CC1(C)CC(=O)C(C(=S)Nc2ccccc2)C(=O)C1` gave Vaccinia pol inh 99.5.
COC(=O)c1ccccc1S(=O)(=O)/C(C#N)=C/Nc1nc(C)cc(C)n1 was read as Vaccinia pol inh 99.3.
Cc1ccc2c(c1)C(c1ccc(F)cc1)N(C(=O)c1ccc(Br)o1)CC(=O)N2 (centres undefined) was read as Vaccinia pol inh 99.3.
`Cc1cc(N)n(-c2ccccc2C(=O)O)n1` gave Vaccinia pol inh 91.4.
For Oc1ccc(C2(c3ccc(O)cc3)CCCC2)cc1 the results were Vaccinia pol inh 52.9*.
Cn1cnc(-n2oo2)c1C#N was read as Vaccinia pol inh 98.5.
For CCOC(=O)c1c(C)sc2c1Nc1cc(Cl)ccc1S2 the results were Vaccinia pol inh 100.3.
For CCC1(C)Cc2ccccc2-c2c1c(=O)n(-c1ccc(C)cc1)c1nncn21 (centres undefined) the results were Vaccinia pol inh 99.5.
Screening CCN=C1S/C(=C\c2cn(CC(=O)Nc3cccc(C)c3)c3ccccc23)C(=O)N1CC returned Vaccinia pol inh 98.4.
Screening O=C(NCCCc1ccccc1)C1c2ccccc2-c2ccccc21 returned Vaccinia pol inh 98.0.
`CCCCN(CC)C(=O)c1cn(CC)c(=O)c2cc(OC)c(OC)cc12` gave Vaccinia pol inh 106.6.
`CCC(=O)Nc1cccc(Oc2nc(C)cc(C)c2C#N)c1` gave Vaccinia pol inh 100.1.
Screening CCC(Oc1ccccc1)C(=O)Nc1nncs1 (centres undefined) returned Vaccinia pol inh 103.9.
`N#Cc1cccc(NC(=O)/C=C/c2cccc3ccccc23)c1` gave Vaccinia pol inh 99.4.
COc1ccc(NCC(=O)n2c(C)c(C)c3ccccc32)cc1 was read as Vaccinia pol inh 97.2.
`Cc1nc(C(F)(F)F)ccc1C(=O)NN1CCOCC1` gave Vaccinia pol inh 107.6.
Screening CCCC1c2ccsc2CCN1C(=O)c1cc(OC)cc(OC)c1 (centres undefined) returned Vaccinia pol inh 99.5.
`COc1ccc(-c2cc(=Nc3ccc(C)cc3C)c3cc(O)ccc3o2)cc1` gave Vaccinia pol inh 99.9.
Screening S=C(NC1CCCCC1)N1CCN(Cc2ccc3c(c2)OCO3)CC1 returned Vaccinia pol inh 101.1.
Screening CC(C)c1ccccc1N=Cc1ccc2c(c1)OCO2 returned Vaccinia pol inh 101.1.
CC(C)(C)C(=O)Nc1nc(COc2ccccc2)cs1 was read as Vaccinia pol inh 97.8.
Screening Cc1cccc(C(=O)NCCCn2ccnc2)c1 returned Vaccinia pol inh 100.0.
Screening O=C1NC(=O)C2(OC(=O)C(=O)/C2=C(/O)c2ccccc2)C(=O)N1 returned Vaccinia pol inh 97.7.
Screening O=C(NCCCc1nc2ccccc2[nH]1)c1cccs1 returned Vaccinia pol inh 95.6.
`CCOC(=O)C(C)Sc1ncnc2c1nnn2-c1ccc(OC)cc1` (centres undefined) gave Vaccinia pol inh 97.4.
For COc1ccc(Nc2nc3ccc(C)cc3nc2Nc2ccc(OC)cc2)cc1 the results were Vaccinia pol inh 98.4.
For CCOC(=O)C1=C(N)OC2=C(C(=O)CCC2)C1c1ccc(OC)cc1 (centres undefined) the results were Vaccinia pol inh 95.2.
`Nc1c(C(=O)Nc2ccccc2)sc2nc3c(cc12)C(=O)CCC3` gave Vaccinia pol inh 99.0.
`Cc1ccc(S(=O)(=O)N=S(Cc2ccccc2)Cc2ccccc2)cc1` gave Vaccinia pol inh 92.1.
`Cc1cccc(N(C2C=CS(=O)(=O)C2)S(=O)(=O)c2ccccc2)c1` (centres undefined) gave Vaccinia pol inh 105.8.
Cc1cc(C)[n+]2c(-c3ccccc3)csc2n1 was read as Vaccinia pol inh 100.7.
For Nn1c(=O)c2ccccc2n2c(SCC(=O)N(c3ccccc3)c3ccccc3)nnc12 the results were Vaccinia pol inh 96.8.
For OCCNc1ncnc2sc3c(c12)CCCC3 the results were Vaccinia pol inh 89.3.
Screening S=C(SCc1ncon1)N1CCSCC1 returned Vaccinia pol inh 98.7.
For Cc1cc(C)c(N(CC(O)Cn2c3ccccc3c3ccccc32)S(C)(=O)=O)c(C)c1 (centres undefined) the results were Vaccinia pol inh 99.8.
Screening CS/C(N)=N/C(N)=Nc1ccc(Cl)cc1 returned Vaccinia pol inh 87.5.

Some of the compounds tested (hit frequency here may not be typical).
